# Assay outcomes as filed in PubChem.
# PrP 5UTR inh: inhibition of PrP 5' UTR reporter expression | AID 488862 | actives 0.35% (n = 340,000) | inhibition, % (no concentration beside the values) | cell-based PrP 5' UTR mRNA reporter, plate reader;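 active means every replicate at 50% or more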;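 further: 0 = median of the neutral control wells; tested in H4 reporter cells; numbers are from one replicate; inactives centre near -14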
# ugtP null kill: growth inhibition of S. aureus ugtP deletion strain | actives 0.54% (n = 330,000) | S. aureus RN4220 ugtP deletion, OD600 growth, 16 h; some inactives read as strong as hits | AID 1259309 | growth inhibition, % (test concentration not listed);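 active means z-score under -3 and OD600 up to 0.15 on both plates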;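 further: plate controls were untreated wells for no effect and antibiotic for full effect; wells of about 80 µL received 100 nL stock; the first replicate is given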
# BJeLR lethal: BJeLR cell viability loss | actives 0.17% (n = 300,000) | AID 1554 | inhibition, % (concentration not given with the values) | BJeLR (HRASV12) viability, CellTiter-Glo ATP luminescence, 48 h; reference of the scale not given here;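 active means replicate mean above 50%; inconclusive means above 50% but judged a plate artefact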;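 further: 50 nL library stock added to about 25 µL; numbers are from one replicate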
# Mtb hypoxia inh: reduces hypoxia-regulated biosensor signal in M. tuberculosis | M. tuberculosis hypoxia-regulated fluorescent reporter, fluorescence | fluorescence inhibition, % (concentration not given with the values) | actives 0.1% (n = 300,000);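 active means 35 to 45% if threefold the growth effect, above 45% if 1.5-fold the growth effect; inactive means the rest, general growth blockers included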;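 further: wells of about 50 µL received 100 nL stock; 0% = vehicle wells and 100% = reference inhibitor wells; whole bacteria with a GFP reporter of the hypoxia response; strong numbers were not always called active; many hits fall short of the cut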
# Sa RN4220 lethal: S. aureus RN4220 growth inhibition; OD600, 16 h; inhibition, % (no concentration beside the values); actives 0.33% (n = 330,000); AID 1259311;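 active means z-score of -3 or lower and OD600 up to 0.18 on both plates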;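 further: plate controls were untreated cells for no effect and reference antibiotic for full effect; stock transfer was 100 nL into about 80 µL; one replicate is shown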
# Autofluor counter: flagged as autofluorescent in microsphere protease counterscreen; compound autofluorescence counterscreen, microsphere flow cytometry; hits give high values; fluorescence intensity (concentration not given with the values); actives 3.1% (n = 360,000); AID 624483;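 active means at least 3 SD above the mean of all compounds, about 16000 in these data; inconclusive means too few beads counted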;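 further: 100 nL of 1 mM stock went into each well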
# Mtb hypoxia inh growth: recorded beside Mtb hypoxia inh, whose call it bears; growth inhibition, %; measured here: M. tuberculosis growth (absorbance);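 0% = vehicle and 100% = reference antibiotic; read after six days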
# Numbers without * were called inactive; ? = inconclusive; . = not tested or not shown. Not a hit list, and some 4% of all compounds hit somewhere here.
no. | mol | PrP 5UTR inh | ugtP null kill | BJeLR lethal | Mtb hypoxia inh | Mtb hypoxia inh growth | Sa RN4220 lethal | Autofluor counter
1 | O=C(O)CCN1C(=O)C2C3C=CC(C3)C2C1=O (stereo not given) | -14 | 1 | -11 | . | . | 5.7 | 4995
2 | O=C(COC(=O)CN1C(=O)C2CCCCC2C1=O)NNC(=O)c1ccc(Cl)cc1 (stereo not given) | -16 | 8 | -3 | 4 | 15 | 0.6 | 5173
3 | COc1cccc(/C=C/C(=O)OCC(=O)NCCC2=CCCCC2)c1 | -16 | -14 | -3 | -6 | 2 | 2.3 | 3290
4 | O=c1c(Cc2ccc(F)cc2)c(O)ccn1CC1CCCO1 (stereo not given) | -11 | 4 | 3 | 2 | 0 | 3.5 | 3590
5 | NS(=O)(=O)c1ccc(CNC(=S)Nc2ccc(F)c(Cl)c2)cc1 | -23 | -2 | 10 | 7 | 3 | 0.9 | 2254
6 | COc1cc(S(=O)(=O)Nc2cc(C)cc(C)c2)ccc1F | -8 | -6 | 1 | 9 | -1 | 4.9 | 1968
7 | CC(CCc1ccccc1)NC(=O)CNC(=O)COc1ccccc1 (stereo not given) | -20 | 5 | 3 | . | . | 3.8 | 3479
8 | N#CCSc1nnc(Cc2cccs2)n1C1CCCCC1 | -7 | 2 | 3 | 15 | 0 | 3.3 | 3603
9 | C(=N\Nc1nc2ccccc2s1)/c1cccs1 | -76 | . | -5 | . | . | . | 12575
10 | Cc1cc(C(=O)COC(=O)CNC(=O)c2ccc(Cl)c(Cl)c2)c(C)n1Cc1ccco1 | -6 | -2 | 0 | 2 | -8 | 5.2 | 2054
11 | Cc1cc(/C=C(\C#N)C(=O)NCCc2c[nH]c3ccccc23)c(C)n1C | 0 | -8 | . | 2 | 6 | -0.2 | 2022
12 | CC(=O)c1ccc2oc3ccccc3c(=O)c2c1 | -45 | 3 | 7 | -1 | -10 | 10 | 3445
13 | BrC(=C\c1ccccc1)/C=N/N1CCN(Cc2ccccc2)CC1 | -16 | . | 2 | . | . | . | 2752
14 | COc1ccc(-c2nc(NC(=O)c3nc4nccc(C)n4n3)sc2C)cc1 | -4 | -3 | 6 | -10 | -8 | 0.0 | 4334
15 | O=C(Cc1coc2cc(O)ccc12)NNC(=O)c1cccs1 | -7 | -2 | . | 1 | 5 | 3.3 | 3644

# 4 entries from above, arranged by number of heavy atoms, smallest number first:
no. | mol | PrP 5UTR inh | ugtP null kill | BJeLR lethal | Mtb hypoxia inh | Mtb hypoxia inh growth | Sa RN4220 lethal | Autofluor counter
6 | COc1cc(S(=O)(=O)Nc2cc(C)cc(C)c2)ccc1F | -8 | -6 | 1 | 9 | -1 | 4.9 | 1968
5 | NS(=O)(=O)c1ccc(CNC(=S)Nc2ccc(F)c(Cl)c2)cc1 | -23 | -2 | 10 | 7 | 3 | 0.9 | 2254
7 | CC(CCc1ccccc1)NC(=O)CNC(=O)COc1ccccc1 (stereo not given) | -20 | 5 | 3 | . | . | 3.8 | 3479
11 | Cc1cc(/C=C(\C#N)C(=O)NCCc2c[nH]c3ccccc23)c(C)n1C | 0 | -8 | . | 2 | 6 | -0.2 | 2022

# (next part)
no. | mol | PrP 5UTR inh | ugtP null kill | BJeLR lethal | Mtb hypoxia inh | Mtb hypoxia inh growth | Sa RN4220 lethal | Autofluor counter
16 | Cn1c(O)c(C=Nc2cccc(C(F)(F)F)c2)c(=O)n(C)c1=O | -19 | 11 | -4 | -4 | 6 | 1.0 | 3557
17 | Cc1ccc(NC(=S)N/N=C2/CCCc3c(C)cc(C)cc32)cc1 | -14 | . | 3 | . | . | . | 20580*
18 | CC(=O)c1ccccc1NC(=O)CC1(CC(=O)O)CCCCC1 | -14 | 0 | -3 | 2 | 1 | -1.1 | 3501
19 | Cc1ccc2nc(C)cc(C(=O)N3CCCC(CO)(Cc4ccccc4C)C3)c2c1 (stereo not given) | -13 | 9 | 6 | 2 | 5 | 5.0 | 4505
20 | COc1ccccc1C(=O)NCCC(=O)NC1CCCCC1C (stereo not given) | -26 | 5 | -3 | 12 | 6 | 0.0 | .
21 | CCOC(=O)Cn1cc(/C=C/[N+](=O)[O-])c2ccccc21 | -6 | 6 | -11 | -2 | 3 | 11 | 2843
22 | CCOC(=O)N[C@H](Cc1c[nH]c2ccccc12)C(=O)NC1CC1 | . | 6 | 3 | -15 | 2 | 9.5 | 5401
23 | COc1cccc(CNc2ccc(F)c(Cl)c2)c1O | -49 | 0 | 8 | -1 | -12 | 3.4 | 11583
24 | COc1cccc(NC(=O)CN2C(=O)C(=O)N(C3CCCC3)C2=O)c1 | -17 | 1 | . | -4 | 0 | 2.3 | 2744
25 | O=C(CCC(=O)OCC(=O)c1ccc(Cl)cc1Cl)Nc1cccc2cccnc12 | -9 | 2 | 4 | 13 | 8 | -1.5 | 3426
26 | O=C(CNc1cccc2ccccc12)NN=Cc1ccc(OC(=O)/C=C/c2ccco2)cc1 | . | -7 | . | 1 | 9 | 7.0 | .
27 | Cc1c(C)c2ccc(OC(C)C(=O)NCc3ccccn3)cc2oc1=O (stereo not given) | -6 | 3 | -1 | -3 | 0 | 2.3 | 5613
28 | COc1ccccc1N1CCN(Cc2ccccc2Cl)CC1 | -12 | 0 | -2 | 8 | 14 | 3.3 | 23767*
29 | CC1(O)CC(C)(C)C(C#N)C(=O)N1 (stereo not given) | -24 | 2 | . | 4 | 3 | 3.5 | 3883
30 | N#C/C(=C\Nc1ccc(Cl)cc1)S(=O)(=O)c1ccccn1 | -16 | 6 | -10 | -8 | 1 | 2.1 | 4842
31 | COc1ccc(-n2c(N)c(C(=O)NCc3cccnc3)sc2=S)cc1 | -22 | 3 | -2 | -1 | 6 | 1.5 | 10986
32 | CCCN1CCN(C(=O)Nc2cccc(C(F)(F)F)c2)CC1 | -10 | -8 | -4 | 21 | 19 | -4.7 | 1894
33 | O=C(Oc1cccc(NC(=O)c2cccs2)c1)c1cccc(S(=O)(=O)N2CCCC2)c1 | -28 | 11 | -1 | 9 | 1 | 8.8 | 2175
34 | Cc1ccccc1NC(=O)CSc1nnc(-c2ccco2)c(-c2ccco2)n1 | -15 | -7 | -2 | 1 | 3 | 5.8 | 3795
35 | NC(=O)c1nsc(C(=O)N(c2ccc(F)cc2)C(C(=O)NCC2CCCO2)c2c[nH]c3ccccc23)c1N (stereo not given) | 4 | -4 | 2 | -28 | -7 | 1.4 | 4661
36 | CC(C)(C)N1C(=O)c2ccc(C(=O)Nc3ccc(O)cc3)cc2C1=O | -38 | 0 | -5 | -6 | 3 | -3.8 | 3664
37 | Cc1ccc(-c2nnn(CC(=O)N(Cc3ccco3)C(C(=O)NC(C)(C)C)c3ccncc3)n2)o1 (stereo not given) | -12 | 6 | 6 | -1 | -1 | 3.0 | 2063
38 | CCCCN1CN=C(Nc2nc3ccccc3o2)NC1 | -6 | 1 | 7 | 6 | 13 | 4.0 | 11141
39 | COc1ccccc1N1CCN(C(=O)c2ccc(NC(C)=O)cc2)CC1 | 3 | 3 | 0 | . | . | -0.6 | 4603
40 | O=C(COc1ccc(Cl)cc1)NN=Cc1cccc2cccnc12 | . | 5 | . | 8 | 4 | 3.2 | .
41 | CCC(=O)NC(NC(=O)CC)C(Cl)Cl | -10 | 5 | -14 | 6 | 2 | 2.6 | 3037
42 | COc1ccc(-n2c(N3CCN(C)CC3)nc3sc4c(c3c2=O)CCCCC4)cc1 | -1 | 16 | 2 | 5 | 3 | 0.5 | ?
43 | O=c1[nH]c2cc3c(cc2cc1CN(CCN1CCOCC1)C(=S)NCC1CCCO1)OCO3 (stereo not given) | -3 | -11 | 0 | -6 | 5 | -1.0 | 3339
44 | O=P(/C(=N/O)N1CCCCC1)(N1CCOCC1)N1CCOCC1 | -27 | . | 0 | . | . | . | 2690
45 | O=C(COc1ccccc1)Nc1ccccc1C(=O)NCc1ccco1 | -33 | -1 | -6 | 13 | 6 | 0.0 | 6923

# Brought forward from above: 3 entries; new compounds follow.
no. | mol | PrP 5UTR inh | ugtP null kill | BJeLR lethal | Mtb hypoxia inh | Mtb hypoxia inh growth | Sa RN4220 lethal | Autofluor counter
43 | O=c1[nH]c2cc3c(cc2cc1CN(CCN1CCOCC1)C(=S)NCC1CCCO1)OCO3 (stereo not given) | -3 | -11 | 0 | -6 | 5 | -1.0 | 3339
44 | O=P(/C(=N/O)N1CCCCC1)(N1CCOCC1)N1CCOCC1 | -27 | . | 0 | . | . | . | 2690
45 | O=C(COc1ccccc1)Nc1ccccc1C(=O)NCc1ccco1 | -33 | -1 | -6 | 13 | 6 | 0.0 | 6923
46 | O=C(c1cc2nc(C3CC3)cc(C(F)(F)F)n2n1)N1CCCC1 | -17 | -1 | -1 | . | . | 1.1 | 2632
47 | O=C(c1ccccc1)c1ccc(OCC(O)CNC2CCCc3ccccc32)cc1 (stereo not given) | -11 | 14 | -11 | -5 | 2 | -1.2 | 2244
48 | COc1ccc(C2C(C#N)=C(N)Oc3c2c(C)nn3-c2ccccc2)cc1Cn1nc(C)c([N+](=O)[O-])c1C (stereo not given) | -10 | 3 | 1 | . | . | -3.9 | 5906
49 | O=C(COc1ccc(Br)cc1)NCCNC(=O)c1cccnc1 | -8 | -6 | -1 | -4 | -6 | -3.5 | 6140
50 | O=C1C=C(c2cccc3c2Oc2ccccc2S3)CC(c2ccc(Cl)cc2)C1 (stereo not given) | . | 3 | . | 11 | 13 | -4.6 | .
51 | CCC1CCCCN1Cc1nc2c(c(=O)n(C)c(=O)n2C)n1CCCc1ccccc1 (stereo not given) | -4 | 0 | 5 | 0 | 1 | 1.4 | 4569
52 | Cn1nc(C(=O)Nc2nc3ccccc3[nH]2)c2ccccc2c1=O | -35 | -6 | 12 | -7 | -4 | -1.1 | 2429
53 | COc1ccc(CN2CCC(Cc3ccccc3)CC2)cc1OC | -4 | 14 | 2 | 16 | 12 | 1.5 | 3625
54 | COCCN1Cc2cccc(C(=O)Nc3ccccc3OC)c2C1=O | -2 | 0 | 7 | 5 | 6 | 2.2 | .
55 | COc1ccc(NC(=O)CSc2n[nH]c(C(C)C)n2)c([N+](=O)[O-])c1 | -21 | -7 | 4 | 1 | 1 | 3.7 | 3187
56 | Cc1cc2cc3c(C)cc(=O)oc3c(C)c2o1 | -1 | -3 | -19 | 13 | 11 | 2.1 | 3504
57 | CCC(=O)N(CCc1ccc(OC)c(OC)c1)Cc1cc2ccc(C)cc2n2nnnc12 | 6 | -5 | -5 | 1 | 13 | 3.1 | 4514
58 | O=c1c2c(-c3ccccc3)csc2ncn1N=Cc1cccc([N+](=O)[O-])c1O | . | 15 | . | 12 | 7 | 6.6 | .
59 | Cc1n[nH]c(C)c1Sc1ccccc1N=Cc1cc(Cl)cc([N+](=O)[O-])c1O | -22 | . | 2 | . | . | . | 3932
60 | CC(=O)C1CCC2C3CCC4CC(O)CCC4(C)C3C(=O)CC12C (stereo not given) | -18 | -1 | . | 8 | 10 | 17 | 3821
61 | COC(=O)c1ccc(C(=O)OC)c(NC(=O)CSCc2ccccc2Br)c1 | -11 | -3 | -14 | 7 | 11 | 6.1 | 2309
62 | Cc1noc(C)c1COC(=O)C1CCN(S(=O)(=O)c2ccc(F)cc2)CC1 | -36 | 3 | . | 8 | 12 | 5.7 | 3519
63 | O=C(O)C1C2C=CC(C2)C1C(=O)N1CCOCC1 (stereo not given) | -20 | 7 | -2 | 13 | 7 | 2.9 | 12793
64 | O=C(NC1CCCC1)c1ccccc1OCc1ccccc1 | 6 | -64 | 4 | 12 | 10 | -5.0 | 3176
65 | CC1CN(C(C)CO)C(=O)c2cccc(NC(=O)Nc3ccc4c(c3)OCO4)c2OC1CN(C)S(=O)(=O)c1cccs1 (stereo not given) | . | 2 | . | 10 | 7 | 0.0 | .
66 | O=C1N=c2ccc([N+](=O)[O-])cc2=C1c1sc(=O)[nH]c1O | 3 | . | -8 | . | . | . | 3910
67 | COC(=O)c1nnn(-c2nonc2N)c1CSc1ccc(Cl)cc1 | -19 | -2 | 0 | . | . | 7.4 | 3576
68 | O=[N+]([O-])c1ccc(S(=O)(=O)Nc2cccc(-c3ccc(N4CCOCC4)nn3)c2)cc1 | -7 | -5 | -6 | -6 | -6 | 1.7 | .
69 | COc1cc(NS(=O)(=O)c2cn(C)cn2)cc(OC)c1 | -8 | 5 | -5 | 12 | 4 | 4.3 | 4915
70 | CCCNC(=O)OCC12CC3CC(CC(C3)C1)C2 | -3 | 9 | -8 | . | . | 3.9 | 2438
